VDR inh = Inhibitors of the vitamin D receptor (VDR): qHTS. VDR-SRC2-3 peptide fluorescence polarization, 2 h. AID 504847, 2011. Vitamin D3 receptor (Homo sapiens), P11473. Potency, µM, without a hit: max response, negative = inhibition, usual class: inhibitors. 400,000 compounds, 0.93% hits; active = well fitted inhibition curve with a large enough effect; inconclusive = small, poorly fitted or top-dose-only effect, or another doubt; inactive = no such curve, though single readings can be large or run the other way; also: series mostly up to about 120 µM
Target sequence (P11473 whole entry, looked up): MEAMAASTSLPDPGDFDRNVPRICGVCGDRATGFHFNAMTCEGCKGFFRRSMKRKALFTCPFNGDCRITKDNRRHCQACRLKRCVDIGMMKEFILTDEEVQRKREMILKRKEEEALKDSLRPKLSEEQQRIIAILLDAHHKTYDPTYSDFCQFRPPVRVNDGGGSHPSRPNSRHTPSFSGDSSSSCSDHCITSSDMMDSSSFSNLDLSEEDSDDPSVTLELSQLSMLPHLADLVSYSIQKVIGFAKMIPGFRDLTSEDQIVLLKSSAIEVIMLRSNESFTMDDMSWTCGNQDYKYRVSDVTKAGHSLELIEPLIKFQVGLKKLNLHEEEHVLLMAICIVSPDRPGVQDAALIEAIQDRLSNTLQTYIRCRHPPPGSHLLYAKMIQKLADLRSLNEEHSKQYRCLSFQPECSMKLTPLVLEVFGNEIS
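Measured by FP: displacement of SRC2-3 coactivator peptide from VDR by library compounds, following a two-hour ambient incubation.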
An asterisk follows results filed as active; ? = inconclusive; & = joins results of further samples; [ ] = dose if it differs, or a comment. % is scaled to controls: 0 for no effect and ±100 for the full control effect; potency is read from the fitted curve at half-maximal effect. This is a subset; the hit share may differ from the screen's.

VDR inh	smiles
-14.8%	CCCCNC(=O)CC1N=C2c3ccccc3N=C(SCC(=O)Nc3cccc(C)c3)N2C1=O (configuration not stated)
-6.8%	N#CC(C(=O)Nc1ccc(Cl)c(Cl)c1)=C1Nc2ccccc2N1
14.5%	Cc1cccc(NC(=O)COC(=O)c2ccccn2)c1
3.5%	O=C(CSc1nc2ccccc2c(=O)n1Cc1ccco1)Nc1cccc(O)c1
2.8%	Cc1ccc2c(C)nc(Nc3nc(CSc4nnnn4-c4ccccc4)cc(=O)[nH]3)nc2c1
1.9%&-5.3%	CCCCC/C=C\C/C=C\C/C=C\C/C=C\CCCC(=O)O[C@H](COCCCCCCCCCCCCCCCC)COP(=O)([O-])OCC[N+](C)(C)C
-4.2%	Cc1nn(C)cc1CNC(=O)c1cnn2c1NC(c1ccc(Br)cc1)CC2C(F)(F)F (configuration not stated)
-7.0%	Nc1c(Cl)ncnc1N1CCOCC1
-18.9%	COc1ccc(-n2nc3c(c2NC(=O)COc2ccccc2F)CS(=O)(=O)C3)cc1
-19.0%	S=c1nc(-c2ccc(Br)cc2)oc2c1CCCC2
12.3%	O=C(c1ccc(F)cc1)C1CCN(C(=O)Nc2ccc(F)cc2)CC1
3.6%	O=C(NCCN1CCOCC1)c1ccc(/C=C2\Sc3ccccc3N(Cc3ccccc3F)C2=O)cc1
?	Cc1ccc(C)c(C(=O)CSc2n[nH]c(C)n2)c1
-6.8%	Cc1ccc(NC(=O)C(=O)NCCOc2ccc(Cl)cc2)c(C)c1
4.0%	CCOC(=O)C1(C)C=C(Nc2ccc(OC)cc2)C(=O)N1c1ccc(OC)cc1 (configuration not stated)
-10.3%	C=CCC(C#Cc1ccccc1)[N+](C)(C)CC=C (configuration not stated)
-17.2%	Cc1nc(N2CCN(C)CC2)c2sc(=S)n(-c3ccccc3)c2n1
9.6%	COc1ccc(C(=O)NC2CCN(C(=S)Nc3ccc(C)c(C)c3)CC2)cc1
7.2%	CCOc1ccc(C(=O)Nc2ccc(-c3cc4ccccc4oc3=O)c(C)c2)cc1[N+](=O)[O-]
0.3%	CC(=O)Nc1ccc(Oc2cc(N)cc([N+](=O)[O-])c2)cc1
-0.2%	Cc1noc(Cn2c(=O)c3ccccc3n(CC(=O)Nc3ccc(C(C)C)cc3)c2=O)n1
-15.0%	Cc1nnc(NC(=O)CSc2ccc3nnc(-c4ccccn4)n3n2)s1
-5.7%	COc1ccc(NC(=O)c2cnc(Nc3ccc(C)c(Cl)c3)c3ccccc23)cc1OC
3.2%	Cc1ccc(Cc2nc3ccccc3[nH]2)cc1
11.5%	CN(C(=O)COC(=O)/C=C/c1cccc([N+](=O)[O-])c1)C1CCS(=O)(=O)C1 (configuration not stated)
9.0%	CCOC(=O)Cc1ccc(NC(=O)n2ncc3c(C)cccc32)cc1
6.2%	Cc1cc(C)n(CCc2nc3c4ccccc4nc(SCc4ccc(Cl)cc4)n3n2)n1
-0.5%	CCC(C(=O)N1CCCCCC1)n1nc(C)n2c(cc3occc32)c1=O (configuration not stated)
15.4%	COc1ccc(OC)c(NC(=O)NCCc2c[nH]c3ccccc23)c1
7.9%	CCOC(=O)C1=CN(Cc2cccc(-c3ccc(F)cc3)c2)S(=O)(=O)N(C)C1C (configuration not stated)
8.0%	CC(C)OCCCNS(=O)(=O)c1ccc2ccccc2c1
6.0%	COc1ccc(C(=O)CSc2nnc(CNC(=O)c3ccccc3)n2C)cc1
?	Cc1cc(NC(=O)c2ccc(Cl)c(S(=O)(=O)N3CCCCC3)c2)no1
-19.3%	Cc1ccc(NC(=O)CN2C(=O)S/C(=C\c3ccc(-c4cccc(C(=O)O)c4C)o3)C2=O)cc1C
0.1%	Cc1ccc(N2C(=O)C(NC(=O)c3ccccc3F)(C(F)(F)F)C3=C2CC(C)(C)CC3=O)cc1 (configuration not stated)
-5.9%	CCOC(=O)N1CCN(S(=O)(=O)c2cc(OCC)ccc2OCC)CC1
?	O=C1C=C(c2c(O)ccc3ccccc23)c2ccccc2C1=O
5.0%	CCOc1ccc(C(C(=O)NCC2CCCO2)N(C(=O)c2snc(C(N)=O)c2N)c2ccc(F)cc2)cc1 (configuration not stated)
4.8%	CCCCN(C(=O)C1COc2ccccc2O1)c1c(N)n(CCC)c(=O)[nH]c1=O (configuration not stated)
-6.6%	Cn1nnnc1SCC(=O)NC(=O)c1cccc([N+](=O)[O-])c1
-2.4%	Nc1nccc(-c2cc(-c3ccc(Cl)cc3Cl)no2)n1
-4.7%	CNC(=S)N(CCc1ccc(S(N)(=O)=O)cc1)C1CC(=O)N(c2ccccc2F)C1=O (configuration not stated)
4.9%	Fc1ccccc1C(c1nnnn1Cc1ccc2c(c1)OCO2)N1CCN(Cc2ccccc2)CC1 (configuration not stated)
70.8µM*	CCOC(=O)c1sc(N)c(C(=O)Nc2ccccc2OC)c1C
25.3%	O=S(=O)(NCC(c1ccco1)N1CCOCC1)c1ccc(Br)cc1 (configuration not stated)
-7.0%	CSc1nc2ccc(NC(=O)c3cc4ccccc4o3)cc2s1
-4.4%	CCCc1cc(=O)[nH]c(SCC(=O)N2C(C)CCCC2C)n1 (configuration not stated)
-5.5%	O=C(CCN1CCN(c2ccccc2)CC1)N/N=C/c1ccccc1OC(F)F
3.7%	CCC(C(=O)Nc1cccc(Cl)c1C)n1nc(-c2ccc(C)cc2)ccc1=O (configuration not stated)
-3.3%	CN1CCc2c(sc(NC(=O)C3COc4ccccc4O3)c2C(N)=O)C1 (configuration not stated)

Additional entries:
VDR inh	smiles
20.1%	CCc1cc[n+](C(C(=S)Nc2cccc(C)c2)=C([O-])c2ccc(C)c([N+](=O)[O-])c2)cc1
?	COc1ccc(OC)c(NC(=O)c2nc(S(=O)(=O)Cc3ccc(F)cc3)ncc2Cl)c1
-21.9%	Cc1cccc(CNC(=O)C2CCC(=O)N(CCc3cccc(F)c3)C2)n1 (configuration not stated)
6.4%	COC(=O)c1ccc(NC(=S)NC2CC(C)(C)NC(C)(C)C2)cc1
-0.6%	Cc1cccc(/C=C2/Sc3ccc(C(=O)NCCN4CCCC4)cc3NC2=O)c1
-19.5%	COC(=O)c1c(-c2ccc(C)cc2)csc1NC(=S)NC(=O)c1cc(OC)cc(OC)c1
-14.1%	Cc1ccc(N=C(N)N=C(N)N)c(C)c1
-6.1%	CCOc1cc(/C=C2\SC(=O)N(c3ccc(O)cc3)C2=O)ccc1O
3.6%	CC(C)C1Oc2ccccc2N(CC(=O)N(Cc2ccccn2)CC2CCCO2)C1=O (configuration not stated)
6.0%	CCN(CC)CCN1C(=O)C(O)=C(C(=O)c2ccc(C)o2)C1c1ccccn1 (configuration not stated)
-3.1%	CC(=O)N1C(O)CC(C)N1c1ccccc1 (configuration not stated)
4.7%	Cn1c(=O)c2c(nc(CN3CCN(CCO)CC3)n2Cc2cccc3ccccc23)n(C)c1=O
11.3%	Cc1ccc(C)c(NC(=O)Cn2c(=O)n(Cc3ccc4c(c3)OCO4)c(=O)c3ccc(C(=O)NC4CCCCC4)cc32)c1
-3.9%	Cc1ccn2c(=O)nc(SCC(=O)OCc3ccccc3)nc2c1
14.8%	Cc1cccc(NC(=S)N/N=C/c2cccc(O)c2)c1C
-9.6%	COc1ccc(Nc2nnc(-c3ccncc3)s2)cc1Cl
4.6%	CCOc1ccc2oc(-c3ccccc3)c(C(N)=O)c2c1
-9.8%	Cc1cc(C)nc(/N=C(\N)C2=C(O)CC(C)(C)CC2=O)n1
-2.9%	CC(C)Cn1c(N)c(C(=O)COC(=O)c2cc3ccccc3cc2O)c(=O)n(C)c1=O
1.2%	CC1(C)CC(=O)C=C(NCc2ccc(Cl)c(Cl)c2)C1
-26.0%	CCOC(=O)Cc1ccc(-c2ccccc2)cc1
-16.4%	CCc1cc2cc3c(cc2nc1SCC(=O)OC(C)C)OCO3
-12.5%	CCOc1ccccc1NC(=O)CN(C)S(=O)(=O)c1ccc(OC)c(C)c1
7.2%	Cc1cccc(C)c1NC(=S)N(c1ccccc1)C(C)C
-1.5%	Cc1ccc(S(=O)(=O)CC(c2ccccc2)N2CCCCC2)cc1 (configuration not stated)
-10.3%	Nc1nc(CCl)nc(Nc2ccc3ccccc3c2)n1
-23.4%	O=C(O)c1ccc2c(c1)C(=O)N(C(Cc1ccc(O)cc1)C(=O)O)C2=O (configuration not stated)
20.7%	c1ccc(-n2c(SCC3CCCCO3)nnc2-c2cnccn2)cc1 (configuration not stated)
5.3%	O=C(NC1CCCN(Cc2ccc(Cl)cc2)C1)c1ccnc(Cl)c1 (configuration not stated)
-16.2%	CCN1CCN(c2ccc(S(=O)(=O)N3CCCCC3)cc2NC(=O)Cc2ccc(Cl)c(Cl)c2)CC1
-11.4%	O=C(COC(=O)c1ccc(Sc2ccccc2)c([N+](=O)[O-])c1)NC1CCS(=O)(=O)C1 (configuration not stated)
-9.4%	Nc1c(C(=O)c2ccccc2)sc2snc(SCC(=O)c3ccccc3)c12
-5.1%	CCCn1ncc(C(=O)N(C)C2CCCN(Cc3ccccc3F)C2)c1C (configuration not stated)
-7.9%&3.4%	CC(=O)Nc1ccc(S(=O)(=O)NCC2CCC(C(=O)NCc3ccccc3)CC2)cc1 (configuration not stated)
2.6%	CCN(CC)c1nc(-c2ccc(C(C)(C)C)cc2)nc2ccccc12
15.0%	Cc1ccc(S(=O)(=O)NC(=O)Nc2ccc(C)cn2)cc1
-15.0%	COc1cc2cccc(OC)c(=O)c2c(O)c1OC
5.7%	O=C(c1cc(-c2ccccc2)nn1-c1ccccc1)N1CCN(S(=O)(=O)c2ccc(F)cc2)CC1
-10.5%	Nc1nc(Nc2cccc(F)c2)nc2ccccc12
-14.3%	CNc1ccc(C(=O)OCC(=O)NC(=O)NC2CCCC2)cc1[N+](=O)[O-]
6.4%	CCCn1c2ccccc2c2cnn(CC(=O)NCc3ccccc3Cl)c(=O)c21
27.4%	CCOc1ccc(NC(=O)CC2C(=O)N(c3ccc(OC)cc3)C(=O)N2CCc2ccc(OC)c(OC)c2)cc1 (configuration not stated)
14.1%	C=CCOc1ccc(C2C(C(=O)c3ccco3)=C(O)C(=O)N2Cc2cccnc2)cc1 (configuration not stated)
-11.3%	[N-]=[N+]=NCC/C=C\C1NS(=O)(=O)OCC1O (configuration not stated)
17.8%	CCCN(CC(=O)Nc1ccccc1C)C(=O)COC(=O)c1cnc(C)cn1
20.1%	COc1ccc(CNC(=O)CN(c2ccccc2OC)S(=O)(=O)c2ccc(C)cc2)cc1
2.7%	Cc1ccc(S(=O)(=O)NC(C(=O)Oc2cc3oc(=O)cc(C)c3cc2Cl)C(C)C)cc1 (configuration not stated)
-20.0%	O=C(NCc1cccs1)c1nc2c(nnn2Cc2ccccc2Cl)c(=O)[nH]1
-14.5%	Cc1cc(N2CCN(C(=O)c3ccco3)CC2)n2nc(C)c(-c3ccccc3)c2n1
-6.0%	CN(C(=O)COC(=O)c1cc(=O)[nH]c2ccccc12)C1CCCCC1

(list continues)
VDR inh	smiles
7.3%	COCCNS(=O)(=O)c1ccccc1
-11.7%	O=S(=O)(NCCCSc1ccccc1)c1ccccc1F
-6.0%	COc1ccccc1N(CC(=O)NC1CC2CCC1C2)S(=O)(=O)c1ccc(C)cc1 (configuration not stated)
-12.7%	COCCNC(=S)N1CCC(c2nc(-c3ccc(F)cc3)no2)CC1
-1.9%	Cc1c(Cl)cccc1NC(=O)c1cnc2sc(N3CCOCC3)nn2c1=O
-14.8%	COc1cc(NC(=O)CCNS(=O)(=O)c2ccc3c(c2)CCC(=O)N3)cc(OC)c1
2.0%	CN(CCO)C1=NS(=O)(=O)c2cc([N+](=O)[O-])ccc21
4.1%	CCn1c(=O)c2sccc2n(CC(=O)NCCC2=CCCCC2)c1=O
4.3%	CC(C)(C)C1(c2ccccc2)NC(=O)N(CC(=O)N2CCOCC2)C1=O (configuration not stated)
-1.9%	Cn1c(CCCOc2ccc(Cl)cc2Cl)nnc1SCC(=O)Nc1ccc(F)c(Cl)c1
61.3%[activator]	Cc1ccccc1Cn1c(=N)n(CC(O)c2ccco2)c2ccccc21 (configuration not stated)
-23.2%	C#CCN(N(C)c1ncc(C(F)(F)F)cc1Cl)S(=O)(=O)c1ccc2ccccc2c1
-11.0%	Cc1cccc(C(=O)NNC(=O)C(=O)NC(C)(C)C)c1
8.7%	COc1ccc(OC)c(S(=O)(=O)N2CCC(n3c(C)nc4cccnc43)CC2)c1
-3.6%	O=C(O)c1c2c(nc3ccc(F)cc13)CCC2
1.9%	Cc1ccc2nc(C(=O)O)c(C(=O)O)nc2c1
-3.7%	CC(C)(C)c1cccc(OCCCSc2ncccn2)c1

Given as tab-separated lines: 14 of the compounds above.
Compound	VDR inh
COCCNC(=S)N1CCC(c2nc(-c3ccc(F)cc3)no2)CC1	-12.7%
Cc1c(Cl)cccc1NC(=O)c1cnc2sc(N3CCOCC3)nn2c1=O	-1.9%
COc1cc(NC(=O)CCNS(=O)(=O)c2ccc3c(c2)CCC(=O)N3)cc(OC)c1	-14.8%
CN(CCO)C1=NS(=O)(=O)c2cc([N+](=O)[O-])ccc21	2.0%
CCn1c(=O)c2sccc2n(CC(=O)NCCC2=CCCCC2)c1=O	4.1%
CC(C)(C)C1(c2ccccc2)NC(=O)N(CC(=O)N2CCOCC2)C1=O (configuration not stated)	4.3%
Cn1c(CCCOc2ccc(Cl)cc2Cl)nnc1SCC(=O)Nc1ccc(F)c(Cl)c1	-1.9%
Cc1ccccc1Cn1c(=N)n(CC(O)c2ccco2)c2ccccc21 (configuration not stated)	61.3%[activator]
C#CCN(N(C)c1ncc(C(F)(F)F)cc1Cl)S(=O)(=O)c1ccc2ccccc2c1	-23.2%
Cc1cccc(C(=O)NNC(=O)C(=O)NC(C)(C)C)c1	-11.0%
COc1ccc(OC)c(S(=O)(=O)N2CCC(n3c(C)nc4cccnc43)CC2)c1	8.7%
O=C(O)c1c2c(nc3ccc(F)cc13)CCC2	-3.6%
Cc1ccc2nc(C(=O)O)c(C(=O)O)nc2c1	1.9%
CC(C)(C)c1cccc(OCCCSc2ncccn2)c1	-3.7%

Compound activity deposited in PubChem BioAssay by National Center for Advancing Translational Sciences (NCATS).
